# D2 agonist – activates the human D2 dopamine receptor; hit rate 0.084% among 360,000; DiscoveRx PathHunter D2 beta-arrestin, luminescence, 90 min; 100% = 57 uM dopamine signal; activation, % (test concentration not listed); AID 624465; in the data active = activation above about 40%; inconclusive = about 15% to 40%; inactive = below about 15%; further: compound concentration not given in the record; the text of the record calls up to 30% inactive
# Target sequence (P14416 whole entry, looked up): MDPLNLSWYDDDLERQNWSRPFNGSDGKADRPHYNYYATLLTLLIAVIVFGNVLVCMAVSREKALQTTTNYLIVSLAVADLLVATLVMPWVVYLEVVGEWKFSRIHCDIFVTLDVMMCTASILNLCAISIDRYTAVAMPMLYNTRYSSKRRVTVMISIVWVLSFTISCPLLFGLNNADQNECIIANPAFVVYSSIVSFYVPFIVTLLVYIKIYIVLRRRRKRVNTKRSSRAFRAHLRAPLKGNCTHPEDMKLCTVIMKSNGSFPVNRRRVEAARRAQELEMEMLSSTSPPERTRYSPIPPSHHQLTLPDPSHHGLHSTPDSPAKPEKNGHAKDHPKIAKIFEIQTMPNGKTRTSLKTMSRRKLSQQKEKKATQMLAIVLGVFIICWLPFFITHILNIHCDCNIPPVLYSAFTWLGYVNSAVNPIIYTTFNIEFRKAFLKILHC
#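 Agonist mode: compounds alone added to overnight-plated D2 PathHunter cells for 90 min at 37 C, with 57 uM final dopamine (EC100) defining full response. Beta-arrestin recruitment detected by chemiluminescent reagent, read after 1 h at ambient temperature.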
# TRPML1 agonist – agonists of human TRPML1 channel. activation, % (no concentration beside the values). hit rate 0.12% among 410,000. Q9GZU1. TRPML1-expressing cells, Ca2+ dye fluorescence, FDSS; host cell line not named in the record; reference of the full effect not given here; in the data active = activation above about 50%; inconclusive = about 30% to 50%; inactive = below about 30%; further: 0% is about no effect; the text of the record puts the active cut at 80%
# Target sequence (Q9GZU1 whole entry, looked up): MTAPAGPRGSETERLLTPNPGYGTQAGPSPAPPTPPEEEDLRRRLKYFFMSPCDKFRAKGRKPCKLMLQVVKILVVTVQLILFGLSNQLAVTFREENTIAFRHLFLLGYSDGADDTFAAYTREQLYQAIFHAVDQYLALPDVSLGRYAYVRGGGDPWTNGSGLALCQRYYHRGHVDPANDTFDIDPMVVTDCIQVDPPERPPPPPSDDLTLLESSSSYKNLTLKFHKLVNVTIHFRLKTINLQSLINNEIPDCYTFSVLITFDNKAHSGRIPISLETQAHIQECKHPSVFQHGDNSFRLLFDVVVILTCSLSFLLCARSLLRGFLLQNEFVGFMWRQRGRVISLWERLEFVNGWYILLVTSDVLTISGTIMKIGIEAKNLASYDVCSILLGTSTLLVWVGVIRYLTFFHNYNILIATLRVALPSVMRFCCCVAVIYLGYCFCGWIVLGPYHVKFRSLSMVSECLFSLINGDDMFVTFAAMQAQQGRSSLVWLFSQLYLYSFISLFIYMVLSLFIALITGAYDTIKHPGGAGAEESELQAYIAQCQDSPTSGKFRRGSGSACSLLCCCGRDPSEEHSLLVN
#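 TRPML1-DL cells, Tet-induced overnight (~16 h, 37 degrees C), loaded 45-90 min at room temperature with Ca8 no-wash calcium dye plus quencher. FDSS fluorescence: 10 s baseline, compound pin-transfer, 110 s agonist read, then EC80 54-4 (4uM final) and 110 s antagonist read.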
# Six1-Eya2 inh – blocks human Six1 binding to Eya2 | Q15475+O00167 | AlphaScreen GST-Six1/His-Eya2 binding, biochemical; stronger effect = lower value; control for the full effect not named in the record | activity change, % (concentration not given with the values) | hit rate 0.56% among 360,000; in the data active = activity change below about -65%; inconclusive = about -30% to -65%; inactive = above about -30%; further: on the % scale 0 is the no-effect control and ±100 the full control effect
#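 Six1/Eya2 binding was read as AlphaScreen signal after compounds were pinned into GST-Six1 plus His-tagged Eya2 (5X stock 250/500 nM) in pH 8.0 Tris/NaCl/TCEP buffer, beads added, then incubated 1 h, 37 C, dark.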
# TRPML1 blocker – human mucolipin-1 channel inhibition; hit rate 0.02% among 390,000; activity change, negative = inhibition, % (concentration not given with the values); TRPML1-inducible cells, Ca2+ dye fluorescence, FDSS; stronger effect = lower value; inhibition of EC80 agonist-evoked calcium signal; Q9GZU1; in the data active means activity change below about -50%; inconclusive means about -30% to -50%; inactive means above about -30%;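 further: stimulus is agonist 54-4 at its EC80 concentration; on the % scale 0 is the no-effect control and ±100 the full control effect; compound concentration not given in the record; the text of the record puts the active cut at -80%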
#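 Tet-induced TRPML1-DL cells loaded with Ca8 no-wash calcium dye were read kinetically on FDSS. Compound addition was followed by EC80 agonist 54-4 (4 uM final); inhibition was read over 110 s.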
# D2 PAM – positive allosteric modulators of human D2 dopamine receptor; P14416; DiscoveRx D2 beta-arrestin cells, luminescence, 90 min; 100% = 57 uM dopamine signal; potentiation, % (test concentration not listed); hit rate 0.23% among 360,000; active = potentiation of 50% or more; inconclusive = 30% to 50%; inactive = 30% or less;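 further: compound concentration not given in the record; tested on top of an EC20 dose of dopamine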
#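 PathHunter beta-arrestin assay in DiscoveRx D2 cells. Compounds were added with an EC20 of dopamine (50 nM final) for 90 min at 37 deg C. Luminescence was read 1 h after detection reagent, with 57 uM dopamine as the EC100 control.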
# PINK1 expr mod – changes PINK1 expression. PINK1 immunofluorescence, high-content cytometry, 24 h. Potency, µM (titrated, usually from 76.6 µM), inactives show top-dose activation (PINK1 increase), hits mostly activators. hit rate 0.2% among 410,000; active = well fitted activation curve with a large enough effect; inconclusive = small, poorly fitted or top-dose-only effect; inactive = flat fitted curve, though single readings scatter; cell line not stated here;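 further: potency means the concentration at half of the fitted maximal effect; % of control where 0% means no effect; nearly all actives have a fitted effect of over 65% in size; a mitochondrial uncoupler was the plate control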
#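 PINK1 protein, normally rapidly degraded, was detected by immunofluorescence after 24 hour compound treatment of a stable cell line. Titration data (5 concentrations) came from laser-scanning cytometry, with CCCP-treated wells as controls.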
# Starred values were filed as active, the others as inactive; ? = inconclusive; . = no result given; & = joins results of further samples; [ ] = another dose, or the depositor's remark.
# Second line of a record – TRPML1 agonist	TRPML1 blocker	PINK1 expr mod	D2 PAM	D2 agonist	Six1-Eya2 inh
1: COC(=O)c1cc(S(=O)(=O)Nc2cccc(OC)c2)cn1C
  -1.4	-4	2.3%	4	-2.5	1
2: Nc1nonc1-n1nnc(C(=O)N/N=C/c2ccoc2)c1-c1ccccc1
  -1.3	-6	1.2%	-8	-5.5	-28
3: COc1ccc(-c2nnc(SCC(=O)O)n2Cc2ccccc2)cc1
  -1.0	11	-1.4%	1	-2.4	8
4: Cc1ccc2c(c1C)OC(=O)CC2c1ccccc1 (stereo unspecified)
  -0.5	8	1.5%	0	5.2	12
5: CN(CC(=O)Nc1cccc(C(F)(F)F)c1)Cc1ccccc1
  -1.7	-15	6.3%	-15	-1.6	11
6: CCCCN(CCCC)CCNC(=O)c1cn(CC)c2ccc(S(=O)(=O)N(C)C3CCCCC3)cc2c1=O
  -0.6&-1.5	6&6	0.6%&0.5%	-1	-4.5	1
7: COc1cccc(CNC(=O)C(NS(=O)(=O)c2ccc3c(c2)CCN3C(C)=O)C(C)C)c1 (stereo unspecified)
  0.1&-0.3	-6&13	1.0%&-0.7%	-3	-1.5	5
8: COc1ccc(C(O)Cc2nccn2C)cc1 (stereo unspecified)
  2.3	-9	-0.6%	4	1.6	2
9: Cc1ccc(-n2ncc3c(=O)n(CC#N)cnc32)cc1
  -0.1	-1	9.6%[38.3 µM]	-6	-3.5	-2
10: O=S(=O)(c1ccc(Br)c2ccccc12)N1CCCC1
  1.8	21	2.5%	-9	-1.8	17

# Structural class: the compounds so far containing a halogen (2)
# Second line of a record – TRPML1 agonist	TRPML1 blocker	PINK1 expr mod	D2 PAM	D2 agonist	Six1-Eya2 inh
5: CN(CC(=O)Nc1cccc(C(F)(F)F)c1)Cc1ccccc1
  -1.7	-15	6.3%	-15	-1.6	11
10: O=S(=O)(c1ccc(Br)c2ccccc12)N1CCCC1
  1.8	21	2.5%	-9	-1.8	17

# (continued)
# Second line of a record – TRPML1 agonist	TRPML1 blocker	PINK1 expr mod	D2 PAM	D2 agonist	Six1-Eya2 inh
11: N#Cc1cccc(-c2cn(S(=O)(=O)c3ccc(Cl)cc3)nc2N)c1
  -0.3	16	15%	1	-4.6	-6
12: O=C(c1cnn2ccccc12)N(Cc1ccco1)C1CCCC1
  0.6	12	5.9%	-5	-3.4	1
13: COc1cccc(C(=O)Nc2ccc(NC(=O)C3CCCCC3C(=O)O)cc2)c1 (stereo unspecified)
  -0.5	-1	0.6%	-12	-4.6	-1
14: CCOCCCN(C(=O)c1snc(C(N)=O)c1N)C(C(=O)NC1CCCC1)c1ccc(O)c(OC)c1 (stereo unspecified)
  -0.3	10	3.1%	7	2.4	4
15: CCN1CCCC1CNC(=O)c1cn(C)c2ccc(S(=O)(=O)N3CCCCCC3)cc2c1=O (stereo unspecified)
  0.3	-7	-0.6%	3	-1.0	4
16: O=C(CSc1cnc2ccccc2n1)NC1CCCC1
  0.1	-7	0.4%	-5	-2.3	0
17: CCOC(=O)C1=C(C)NC(C)=C(C(=O)OCC)C1C(=O)OCC(=O)N1CCCCC1C (stereo unspecified)
  0.2	4	0.1%	-2	-0.6	6
18: Cc1cc(C)c(S(=O)(=O)NCc2cn3c(C)csc3n2)cc1C
  1.1	23	-0.2%	6	-3.9	11
19: Cc1cc(C(=O)Nc2ccccc2Cl)n(-c2ccccc2)n1
  1.5	9	3.2%	-2	2.8	6
20: Cc1oc2ncnc(N3CCCCC3)c2c1C(=O)Nc1cccc(Cl)c1C
  0.6	5	12%	.	.	.

# Quoted from above, compounds 17 to 20
# Second line of a record – TRPML1 agonist	TRPML1 blocker	PINK1 expr mod	D2 PAM	D2 agonist	Six1-Eya2 inh
17: CCOC(=O)C1=C(C)NC(C)=C(C(=O)OCC)C1C(=O)OCC(=O)N1CCCCC1C (stereo unspecified)
  0.2	4	0.1%	-2	-0.6	6
18: Cc1cc(C)c(S(=O)(=O)NCc2cn3c(C)csc3n2)cc1C
  1.1	23	-0.2%	6	-3.9	11
19: Cc1cc(C(=O)Nc2ccccc2Cl)n(-c2ccccc2)n1
  1.5	9	3.2%	-2	2.8	6
20: Cc1oc2ncnc(N3CCCCC3)c2c1C(=O)Nc1cccc(Cl)c1C
  0.6	5	12%	.	.	.

# (list continues)
# Second line of a record – TRPML1 agonist	TRPML1 blocker	PINK1 expr mod	D2 PAM	D2 agonist	Six1-Eya2 inh
21: CCc1ccc(NS(=O)(=O)c2cccs2)cc1
  5.3	43	-3.2%[38.3 µM]	-11	-0.4	3
22: Cc1ccc(NC(=O)C2CCN(S(=O)(=O)c3ccc4c(c3)CCCC(=O)N4)CC2)c(Cl)c1
  4.8	-9	5.4%	.	.	.
23: CCn1cc(C(=O)N(C)CC(OC)OC)c(=O)c2cc(S(=O)(=O)N3CCOCC3)ccc21
  0.0	-6	1.9%	-9	-4.6	1
24: CCC(C)C(=O)Nc1ccc(OC)cc1OC (stereo unspecified)
  1.4	2	12%[38.3 µM]	-3	0.8	-1
25: CC(=O)Oc1cccc2c1C(=O)c1c(OC(C)=O)cc(C(=O)O)cc1C2=O
  -0.8	7	2.3%	19	5.7	-7
26: COc1ccc(C(=O)Oc2cc(C)[nH]c(=O)c2[N+](=O)[O-])c(OC)c1
  -0.9	-8	-0.4%	-7	-30	5
27: O=C(O)c1ccc(/C=N\Nc2ccc(S(=O)(=O)N3CCOCC3)cc2[N+](=O)[O-])cc1
  0.7	36	0.5%	-6	1.3	19
28: COc1ccc2c(c1)c(CCNNC(=O)C(C)(C)C)c(C)n2C(=O)c1ccc(Cl)cc1
  1.0	77	?	-22	-3.5	-18
29: Cc1ccc(/C=N\NC(=O)Cn2nnc3ccccc32)o1
  2.6	0	-4.2%	2	-2.1	12
30: CCOc1ccc(CCNC(=O)CCS(=O)(=O)c2ccc(Cl)cc2)cc1OCC
  0.1	30	-1.0%	22	-0.1	-1
31: COC(=O)Nc1ccc(S(=O)(=O)N2CCCC(C(=O)Nc3cccnc3)C2)cc1 (stereo unspecified)
  -0.2	-12	.	-10	1.5	4
32: O=C(COc1coc(CN2CCN(c3ccccc3)CC2)cc1=O)Nc1ccc(F)cc1
  0.2	-15	17%	10	4.1	5
33: CN1OC[C@@H]2CN(C(=O)C(C)(C)C)[C@H](c3ccc(-c4cccnc4)cc3)C[C@@H]21
  -0.6	.	-0.4%	-8	-4.2	16
34: COc1ccc(S(=O)(=O)N(C)C)cc1NC(=O)CCNC(=O)c1ccco1
  0.8	-1	0.7%	-11	-1.4	-5
35: CCOc1ccc(CCNC(=O)c2cn(CC)c3ccc(S(=O)(=O)N4CCCCCC4)cc3c2=O)cc1OCC
  -0.4	5	-0.1%	.	.	.
36: Cc1ccc(-c2nnc(CSc3nc(C(C)C)nc4sc(C)c(C)c34)o2)cc1
  5.6	-8	4.3%	-6	-2.7	1
37: CN(C1(C)CCS(=O)(=O)C1)S(=O)(=O)c1cccc([N+](=O)[O-])c1 (stereo unspecified)
  -0.5	-11	-0.8%	0	3.8	0
38: O=C(COC(=O)c1cccc([N+](=O)[O-])c1)c1ccc(OCc2ccccc2)cc1
  -0.3	38	3.2%	-20	2.8	-1
39: COc1ccccc1-c1nc2c(c(SCc3ccc(F)cc3Cl)n1)Cc1c(CO)cnc(C)c1O2
  0.1	-4	0.8%	.	.	.
40: C=CCOC(=O)CSCC(NC(=O)OC(C)(C)C)C(=O)OCC (stereo unspecified)
  -0.2	-16	1.4%	1	0.1	1
41: CC(C)(C)NC(=O)/C=C/c1cccc(C(F)(F)F)c1
  -0.1	0	10%	1	1.3	11
42: Cc1cccc(OCC(=O)N(Cc2sccc2C)C2CCS(=O)(=O)C2)c1 (stereo unspecified)
  -0.6	14	-1.3%	.	.	.
43: CC(NC(=O)COC(=O)c1cc2ccccc2cc1O)c1ccccc1 (stereo unspecified)
  0.0	-9	?	11	3.7	6
44: O=C(Nc1ccc(N2CCC(c3ccccc3)C2)c(C(=O)O)c1)c1ccc(Cl)cc1 (stereo unspecified)
  -0.8	19	1.2%	.	.	.
45: CCn1cc(C(=O)OCC(=O)c2cc(C)n(-c3cccc(C(F)(F)F)c3)c2C)c(=O)c2ccc(C)nc21
  4.6	-5	?	8	8.7	?
46: c1ccc(Cc2ccc(OCCN3CCOCC3)cc2)cc1
  0.9	18	3.4%	-13	5.4	-15
47: Cc1ccc(S(=O)(=O)CC(=O)N2CCCCCC2)cc1
  0.1	5	0.0%	10	-4.8	6
48: Cc1ccc(N2CCN(C(=O)c3ccc(Nc4nc5ccccc5n5nnnc45)cc3)CC2)c(C)c1
  0.3	-11	1.5%	.	.	.
49: Cc1nc2ccc(S(=O)(=O)N(CC(=O)Nc3ccc(F)cc3F)Cc3ccccc3)cc2s1
  3.2	19	-1.0%	.	.	.
50: CCOc1ccc(Nc2nc3c(c(=O)[nH]2)CCC3)cc1
  1.3	31	13%[38.3 µM]	12	0.9	-2
51: Nc1c(Cl)cc(C2=NCCn3nc4cc([N+](=O)[O-])ccc4c32)cc1Cl
  -0.3	-6	2.9%	11	7.3	-21
52: COc1cccc(C2CCCCN(C)C2=O)c1 (stereo unspecified)
  0.5	-4	-1.2%	-2	3.9	1
53: CC(=O)NS(=O)(=O)c1ccc(NC(=O)/C=C/c2cn(-c3ccccc3)nc2-c2ccccc2)cc1
  1.5	5	1.2%	-10	1.2	?
54: O=c1c(C=Nc2cccc(C(F)(F)F)c2)c[nH]n1-c1cccc(Cl)n1
  -0.8	11	-1.7%	1	-2.1	0
55: CCc1ccc(CNC(=O)c2cnc3sc(N4CCOCC4)nn3c2=O)cc1
  1.1	-2	3.7%	.	.	.
56: COCCCn1c(SCC(=O)c2ccccc2)nc2ccccc2c1=O
  2.7	-5	-0.3%	-12	-4.3	3

# Assay outcomes (PubChem)
